StopGo reporter: lowers the luciferase signal of an FMDV 2A StopGo reporter; human cells with a luciferase reporter of 2A StopGo recoding; control for the full effect not named in the record; Potency, µM (highest dose often 57.9 µM), inactives show at the top dose signal change, negative = less light; 410,000 compounds, 1.2% hits; AID 1159524; active = well fitted falling curve with a large enough effect; inconclusive = small, poorly fitted or top-dose-only effect; inactive = no such curve, though single readings can be large or run the other way; tested in HEK293T cells; further: on the % scale 0 is the no-effect control and ±100 the full control effect; nearly all actives have a fitted effect of over 45% in size; luciferase light after 4 h
Lassa entry inh: Lassa virus entry inhibition. AID 540256. 300,000 compounds, 1.2% hits. Lassa virus pseudotype entry inhibition, cell reporter; control for the full effect not named in the record. Potency, µM (highest dose often 37.9 µM), without a hit: at the top dose activity change, negative = inhibition, most hits filed as inhibitors; active means well fitted inhibition curve with a large enough effect; inconclusive means small, poorly fitted or top-dose-only effect, or effect the other way; inactive means flat fitted curve, though single readings scatter; tested in HEK293 cells; further: on the % scale 0 is the no-effect control and ±100 the full control effect; nearly all actives have a fitted effect of over 50% in size; luciferase read-out
RE007 growth inh: less growth of the S. pombe RE007 Vpr strain; S. pombe RE007 Vpr strain, BacTiter-Glo ATP luminescence, 24 h; control for the full effect not named in the record; Potency, µM (series often up to 92.2 µM), for inactives: top-dose activity change, negative = less growth; 360,000 compounds, 0.21% hits; active = well fitted falling curve with a large enough effect; inconclusive = small, poorly fitted or top-dose-only effect; inactive = no such curve, though single readings can be large or run the other way;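 further: on the % scale 0 is the no-effect control and ±100 the full control effect; nearly all actives have a fitted effect of over 50% in size; the assay follows cell death caused by Vpr and the record does not say whether a fall means rescue or toxicity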
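Fission yeast strain RE007, carrying one chromosomally integrated HIV-1 vpr copy, was seeded at OD 0.01 in PMG+AL medium with 23 nL pinned compound. After 24 h at 30 °C and 99% humidity, viability was read by BacTiter-Glo luminescence.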
NS1 inh: influenza NS1 inhibition. AID 2326. 270,000 compounds, 0.4% hits. Potency, µM (series often up to 46.1 µM), for inactives: at the top dose activity, positive = more growth. S. cerevisiae slowed by influenza A NS1, growth recovery by OD600; active means well fitted rising curve with a large enough effect; inconclusive means small, poorly fitted or top-dose-only effect; inactive means no such curve, though single readings can be large or run the other way; further: nearly all actives have a fitted effect of over 50% in size
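S. cerevisiae expressing influenza A NS1, grown in glucose, washed, then diluted 1:100 into pH 6.0 -URA galactose medium with 23 nl compound. Growth recovery read as OD600; NS1-free strain serves as control.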
Marburg entry inh: inhibitors of Marburg virus binding or cell entry; 300,000 compounds, 1.8% hits; Marburg virus pseudotyped entry inhibition, cell reporter; control for the full effect not named in the record; about a third of the inactives were read at about 46 µM; Potency, µM (titrated, usually from 37.8 µM), without a hit: at the top dose activity change, negative = inhibition, hits mostly inhibitors; active = well fitted inhibition curve with a large enough effect; inconclusive = small, poorly fitted or top-dose-only effect, or effect the other way; inactive = flat fitted curve, though single readings scatter; tested in HEK293 cells; about a fifth of its hits are not listed in these tables; further: on the % scale 0 is the no-effect control and ±100 the full control effect; luciferase read-out
Cruzain Triton: cruzain (T. cruzi) inhibition with detergent. P25779. purified cruzain, Z-FR-AMC fluorescence, 0.01% Triton. Potency, µM, for the others: max response, negative = inhibition, hits mostly inhibitors. 200,000 compounds, 0.43% hits. AID 1478;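 further: plate controls were neutral wells for no effect and buffer without enzyme for full effect; nearly all actives have a fitted effect of over 40% in size; top concentration of the series not given in the record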
Target sequence (P25779 123-467 limits assumed): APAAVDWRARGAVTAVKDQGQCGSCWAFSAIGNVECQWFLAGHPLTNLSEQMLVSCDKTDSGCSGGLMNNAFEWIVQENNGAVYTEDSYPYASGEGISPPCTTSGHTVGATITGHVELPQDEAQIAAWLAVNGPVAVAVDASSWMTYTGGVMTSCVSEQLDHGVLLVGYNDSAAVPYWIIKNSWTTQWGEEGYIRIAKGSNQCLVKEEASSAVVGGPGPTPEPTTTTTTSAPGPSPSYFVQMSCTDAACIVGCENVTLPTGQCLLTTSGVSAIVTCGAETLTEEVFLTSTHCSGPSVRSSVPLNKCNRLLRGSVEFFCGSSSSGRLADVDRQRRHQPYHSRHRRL
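Compounds were screened in titration against cruzain (1.5 nM) with 0.01% Triton X-100 to counter colloidal aggregation. Activity was the AMC fluorescence increase over 60 s after adding 2 uM Z-FR-AMC at pH 5.5.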
Cruzain inh noDet: blocks cruzain activity in detergent-free assay; purified cruzain, Z-FR-AMC fluorescence, no detergent; 200,000 compounds, 2.3% hits; AID 1476; Potency, µM, for the others: max response, negative = inhibition, hits mostly inhibitors;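 further: plate controls were enzyme without inhibitor for no effect and buffer without enzyme for full effect; nearly all actives have a fitted effect of over 40% in size; top concentration of the series not given in the record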
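Detergent-free condition (0.00005% Triton X-100) in acetate buffer pH 5.5 with DTT. 1.5 nM enzyme and compound were pre-mixed 15 min, then 2 uM Z-FR-AMC substrate added; reaction progress from fluorescence change between first and third reads (60 s).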
SARS PLpro yeast: SARS-CoV PLP inhibition in yeast | AID 485353 | S. cerevisiae expressing SARS-CoV PLpro, growth rescue; control for the full effect not named in the record | 330,000 compounds, 0.19% hits | Potency, µM (top dose mostly 32.9 µM), without a hit: top-dose activity, positive = growth rescue; active means well fitted rising curve with a large enough effect; inconclusive means small, poorly fitted or top-dose-only effect; inactive means no such curve, though single readings can be large or run the other way; further: 0% is about no effect; nearly all actives have a fitted effect of over 55% in size; growth read by luminescence after 48 h
An asterisk follows results filed as active; ? = inconclusive; . = not tested or not shown; & = joins results of further samples; [ ] = dose if it differs, or a comment. Unless noted, the call rests on the fitted dose curve; in most records, active means well fitted curve in the direction sought with a large enough effect; inconclusive means small, poorly fitted or top-dose-only effect, or another doubt; inactive means no such curve, though single readings can be large; an effect the other way counts as inactive or inconclusive. Potency means the concentration at half of the fitted maximal effect.

SMILES	StopGo reporter	Lassa entry inh	RE007 growth inh	NS1 inh	Marburg entry inh	Cruzain Triton	Cruzain inh noDet	SARS PLpro yeast
CS(=O)(=O)C1=C(O)C(=O)N(CCCC(=O)O)C1c1ccccc1F (stereo unspecified)	6%	20%	3%	-1%	2%	2.6%	1%	-2%
N/C(=N\OC(=O)CCCOc1ccccc1)c1ccccc1	-8%	11%	-16%	-23%	-13%	-3.0%	-6%	-4%
Cc1noc(C)c1C(=O)NC1=NCCS1	-1%	13%[46.1 µM]	12%	3%	0%[46.1 µM]	.	.	2%
N#Cc1c(Cl)cccc1-n1ccnc1	11%	7%	6%	1%	14%	1.6%	-1%	-2%
CCOc1ccc(C(=O)CCC(=O)N(CC)CC(=O)NCc2ccc(Cl)cc2)cc1	16%	-18%	-7%	-11%	13%	.	.	-3%
COc1ccc(C(=S)N2CCCC2)cc1Br	8%	19%	5%	2%	?	.	.	-6%
Cc1ccc(-n2ncc3c(NC4CCCCC4)ncnc32)cc1C	-14%	?	.	.	.	0.8%	-17%	.
C=CCSc1nc(N)c(C(=O)Nc2ccccc2)cc1C#N	?	1%	-4%	-55%	?	1.9%	?	3%
O=C(NCCS(=O)(=O)NCc1ccc(F)cc1)c1ccccc1	16%	?	11%	.	16%	.	.	3%
COc1ccc(Nc2nnc(C)c3ccccc23)cc1	61%[activator]	.	-13%	-5%	.	.	.	-4%
COc1ccc(C(=O)N/C=C/n2cnc3cc(C(F)(F)F)ccc32)cc1	-12%	-9%	-1%	0%	-2%[46.1 µM]	.	.	0%
COc1ccccc1N(CC(=O)N/N=C(\C)c1cccc(Br)c1)S(C)(=O)=O	-15%	-11%	0%	12%	-1%	-4.8%	18%	16%
Cc1ccc(NS(=O)(=O)c2ccc(-c3coc(C)n3)cc2)c(Br)c1	-22%	.	25%	?	.	.	.	-14%
Cc1ccc(C)c(CN2CCC(CNC(=O)Nc3ccc(C)c(F)c3)CC2)c1	-27%	.	-1%	3%	.	.	.	-1%
COCCNC(=O)CCc1c(C)n(C)c2cc(-c3cc(OC)c(OC)c(OC)c3)nn2c1=O	-2%	?	.	.	.	-1.6%	-16%	.
CC(C)CC(=O)Nc1ccc(S(=O)(=O)Nc2nccs2)cc1	38%[activator]	.	-8%	1%	.	.	.	0%
Cc1ccc(C)c(NC(=S)N2CCC(NC(=O)c3cccc(F)c3)CC2)c1	-10%	0%[46.1 µM]	-7%	3%	-2%[46.1 µM]	.	.	0%
C(CNC1C2CC3CC(C2)CC1C3)CN1CCOCC1 (stereo unspecified)	-8%	.	2%	7%	.	.	.	0%
COc1cccc(C(=O)N2CCSC2=S)c1	-8%	-16%	-30%	-4%	0%	-2.2%	4%	-13%
Cc1cc(NC(=O)CN2C(=O)NC3(CCCCC3)C2=O)ccc1N1CCCC1	-2%	11%	-19%	.	-8%	.	.	5%
O=C(CNCc1ccc(Cl)cc1)N1CCc2ccccc2C1	-13%	.	-9%	8%	.	.	.	2%
Cc1c(C(=O)N2CCOCC2)oc2ccc(S(=O)(=O)N3CCCCCC3)cc12	-2%	-7%	7%	-18%	6%&6%	1.1%	?	.
Nc1nc2ccccc2n1C(=O)CCc1ccccc1	34%[activator]	-28%	-6%	-1%	?	2.3%	-13%	4%
O=C(O)C1CC(C(=O)O)SS1 (stereo unspecified)	0%	-13%[46.1 µM]	-4%	.	21%[46.1 µM]	.	.	.
Cc1ccc(NC(=O)/C(=C\C=C\c2ccccc2)NC(=O)c2ccccc2)cc1	31%[activator]	-16%	35%	?	-6%	-3.7%	?	6%
COc1ccc(CCNC(=O)CSc2nc3[nH]ncc3c(=O)n2-c2cccc(C(F)(F)F)c2)cc1OC	-11%	-12%	29%	.	16%[46.1 µM]	.	.	-3%
CCOC(=O)C1CCCN(c2c(N3CCN(C)CC3)c(=O)c2=O)C1 (stereo unspecified)	0%	.	-6%	-3%	.	-5.7%	-11%	1%
COc1ccc2cc3cc(C(=O)N4CCCC(C)C4)oc3nc2c1 (stereo unspecified)	-25%	.	-3%	-1%	.	.	.	-1%
O=C(c1csc2c1CCCCC2)N1CCC2(CC1)OCCO2	?	15%	-11%	1%	11%	3.9%	3%	1%
CCCC(=O)c1ccc(N2CCCCCC2)c(F)c1	-8%	12%	-2%	-50%	?	-0.4%	4%	-3%
C=CCc1cc(Cl)ccc1OCCOCCNC(C)CC (stereo unspecified)	-26%	?	-3%	-1%	11µM*	.	.	0%
CCOc1cc(NC(=S)NCC2CCCO2)c(OCC)cc1NC(=O)c1ccc(F)cc1 (stereo unspecified)	-10%	9%	-9%	-4%	2%	.	.	1%
CCCCn1c(CN(Cc2ccccc2)Cc2ccccc2)nc2c1c(=O)n(C)c(=O)n2C	?	?	17%	-47%	3%&3%	.	.	.
C1CCc2nc3c(nc2C1)CCCC3	6%	.	14%	1%	.	.	.	1%
O=C(Cc1c(F)cccc1Cl)NCCN1CCOCC1	3%	.	-5%	3%	.	.	.	0%
Cc1cc(C)c(OCC(=O)Nc2cccc(NC(=O)c3ccco3)c2)c(Br)c1	?	-12%	-15%	-72%	?	-2.8%	4%	-6%
CCN(CC)C(=O)Cn1cc(S(=O)(=O)CC(=O)NC2CCCCC2)c2ccccc21	-1%	-12%[46.1 µM]	-10%	2%	-6%[46.1 µM]	.	.	0%
O=C(O)c1cccn2c(=O)c3ccccc3nc12	7%	0%	6%	5%	3%	-7.5%	-10%	-8%
COc1cc(NS(=O)(=O)c2ccc(NC(C)=O)cc2)ncn1	19%	-4%	6%	-2%	6%	-1.5%	-2%	-5%
Cc1ccc(/C=C(\C#N)C(=O)NC(C)c2ccccc2)o1 (stereo unspecified)	-10%	.	-21%	-5%	-13%	.	.	1%
Cc1ccccc1CSc1nnc(-c2ccco2)n1Cc1ccco1	24%	-17%	9%	-110%	-3%	-8.0%	-4%	-10%
Cc1ccc(S(=O)(=O)NCCCC(=O)O)cc1	-9%	-2%[46.1 µM]	7%	5%	-8%[46.1 µM]	.	.	0%
Cc1ccc(OCC(=O)NCC2(N(C)C)CCCCC2)cc1C	-5%	-6%[46.1 µM]	.	.	-24%[46.1 µM]	3.3%	-7%	.
O=C(C1=NN(c2ccccc2)C2C(=O)N(c3cccc(Cl)c3)C(=O)C12)c1ccccc1 (stereo unspecified)	-1%	11%	-7%	2%	-8%	-7.1%	?	0%
CC1(C)Nc2ccccc2C(=O)N1c1ccc(Br)cc1	21%	?	2%	.	-30%	.	.	.
Cn1cnc([N+](=O)[O-])c1Cl	?	-16%	1%	-6%	0%	.	.	-1%
COc1cccc(-c2c(C(=O)N/N=C/c3ccncc3)nnn2-c2nonc2N)c1	-14%	.	4%	-1%	.	.	.	-3%
S=c1[nH]nc(COc2cccc(Cl)c2)n1Cc1ccccc1	-18%	-22%[46.1 µM]	-13%	6%	?	.	.	0%
CCCN(C(=O)/C=C/c1nc2ccccc2s1)C1CCS(=O)(=O)C1 (stereo unspecified)	-6%	-16%	-8%	.	-1%	.	.	1%
Cc1cc(C)c(S(=O)(=O)c2ccc(Cl)cc2C)c(Cl)n1	2%	-6%	14%	.	-4%[46.1 µM]	.	.	0%
COc1cc(SC)ccc1C(=O)N1CCN(Cc2ccccc2)CC1	-23%	?	3%	4%	-20%	.	.	1%
COc1ccc2c(c1OC)C(=O)OC2CC(=O)O (stereo unspecified)	31%[activator]	5%	22%	10%	-1%	1.2%	-11%	0%
COc1ccc(-c2noc(CCC(=O)NCc3cccnc3)n2)cc1	6%	-4%	2%	9%	?	1.8%	-5%	4%
COc1cc(NC2c3ccccc3C(=O)N2Cc2ccccc2Cl)cc(OC)c1 (stereo unspecified)	-8%	.	6%	2%	.	.	.	-2%
CCOC(=O)c1sc(NC(=O)CSc2n[nH]c(-c3ccncc3)n2)c(C#N)c1C	?	-15%	14%	-9%	-28%	0.6%	-8%	14%
Cc1ccccc1C(=O)/C(C#N)=N/Nc1c(C)n(C)n(-c2ccccc2)c1=O	-32%	?	.	-1%	?	1.4%	6%	20µM*
Cc1ccccc1-c1nnc(SCC(=O)Nc2ccc(Cl)cc2)n1N	9%	-2%	21%	-14%	-13%	-0.1%	-4%	-1%
Nc1cc(Cl)nc(N/N=C/c2ccccc2[N+](=O)[O-])n1	16%	-2%	-3%	9%	-11%	-1.8%	-5%	6%
CCCC(=O)NCC(c1ccc2c(c1)OCO2)N1CCN(c2ccc(F)cc2)CC1 (stereo unspecified)	-19%	?	.	.	.	0.1%	-12%	.
CC(C)(C)Nc1nc(SCc2ccccc2)nc(N2CCOCC2)n1	?	-8%	-9%	-83%	?	-5.6%	1%	-8%
The list goes on:
SMILES	StopGo reporter	Lassa entry inh	RE007 growth inh	NS1 inh	Marburg entry inh	Cruzain Triton	Cruzain inh noDet	SARS PLpro yeast
Cc1ccc(CNC(=O)CN2N=C(c3ccccc3)CCC2=O)cc1	-22%	-6%[46.1 µM]	.	.	.	0.3%	6%	.
O=C(c1cc2c(s1)CCCC2)N1CCN(CCO)CC1	-7%	2%[46.1 µM]	2%	.	3%[46.1 µM]	.	.	-1%
Cc1ccc(NC(=O)NCc2cccn2C)cc1C	26%	25%[46.1 µM]	-9%	6%	?	.	.	-1%
Nc1nnn(CC(=O)N/N=C/c2ccc(O)cc2)n1	-11%	-22%	16%	0%	9%[46.1 µM]	.	.	1%
CC(=O)N1c2ccc(S(=O)(=O)N(C)CC(=O)N3CCCC3)cc2CC1C (stereo unspecified)	20%	.	-5%	-2%	.	.	.	-2%
O=C(CNc1cccc2ccccc12)N/N=C/c1ccc[nH]1	-7%	?	10%	6%	?	.	.	0%
O=C(CSc1nnc(NC(=O)C2CC2)s1)NCc1ccc(F)cc1	1%	-1%	6%	2%	21%	.	.	-9%
CCCC(=O)Nc1ccc(C(=O)NN2C(=O)c3ccccc3C2=O)cc1	-8%	-1%	-10%	13%	25%	-4.1%	-14%	-4%
CCCOC(=O)c1ccc(OC(=O)c2ccco2)cc1	16%	-1%	-12%	-69%	1%	-1.3%	4%	4%

Compound activity as filed in PubChem.
